Assay outcomes (PubChem)
VDR inh = Inhibitors of the vitamin D receptor (VDR): qHTS | VDR-SRC2-3 peptide fluorescence polarization, 2 h | Potency, µM, for inactives: max response, negative = inhibition, usual class: inhibitors | 400,000 tested, 0.93% active | AID 504847, 2011; active = well fitted inhibition curve with a large enough effect; inconclusive = small, poorly fitted or top-dose-only effect, or another doubt; inactive = no such curve, though single readings can be large or run the other way; also: series mostly up to about 120 µM
Target sequence (P11473 whole entry, looked up): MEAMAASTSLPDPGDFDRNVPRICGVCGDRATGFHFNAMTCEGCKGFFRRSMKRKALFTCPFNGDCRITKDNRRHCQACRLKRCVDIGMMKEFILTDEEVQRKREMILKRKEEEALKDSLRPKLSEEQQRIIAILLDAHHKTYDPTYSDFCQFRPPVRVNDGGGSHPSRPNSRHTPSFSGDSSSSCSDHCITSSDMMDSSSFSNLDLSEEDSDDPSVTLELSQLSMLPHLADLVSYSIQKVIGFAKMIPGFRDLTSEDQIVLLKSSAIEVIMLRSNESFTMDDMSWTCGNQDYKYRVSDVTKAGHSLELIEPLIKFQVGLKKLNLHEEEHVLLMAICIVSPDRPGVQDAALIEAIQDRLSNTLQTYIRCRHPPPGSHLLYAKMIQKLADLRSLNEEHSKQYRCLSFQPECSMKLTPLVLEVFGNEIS
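After 23 nl compound addition and a short centrifugation, plates sat for 2 hours at ambient temperature; polarization of fluorescence then indicated loss of VDR binding to peptide SRC2-3.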
Numbers without * were called inactive; ? = inconclusive; & = joins results of further samples. % is scaled to controls: 0 for no effect and ±100 for the full control effect; potency is read from the fitted curve at half-maximal effect. This is a subset; the hit share may differ from the screen's.

# | VDR inh | mol
1 | -15% | Cn1nc(C(=O)NCc2cccnc2)c2ccccc2c1=O
2 | -2% | CN1CCN(S(=O)(=O)c2ccc(N(C)Cc3ccc(OC(F)F)cc3)c([N+](=O)[O-])c2)CC1
3 | -1%&-8% | CC1CCN(C(=O)Cn2c(=O)oc3cc(S(=O)(=O)N4CCCCC4)ccc32)CC1
4 | ? | NC(=O)CCC(NS(=O)(=O)c1ccc(Cl)cc1)C(=O)NCC1CCCCC1 (configuration not stated)
5 | 8% | Cc1ccccc1C(=O)N1CCN(c2ccc(NC(=O)c3ccco3)cc2Cl)CC1
6 | 9% | CCOc1ccc(N2C(=O)CC(SC(=NC)Nc3ccc(F)cc3)C2=O)cc1 (configuration not stated)
7 | 1% | O=C(COc1ccc(Br)cc1)NC(=S)Nc1ccccc1N1CCOCC1
8 | 1% | CN(CC(=O)Nc1ccc(F)cc1)C(=O)CCc1nc2ccccc2c(=O)[nH]1
9 | 17% | CC(C)Oc1cc(NC(=O)CS(=O)(=O)CC(=O)N(C)C)c(Cl)cc1Cl
10 | -1% | CCNc1ncc2nc(-c3ccc(OC)cc3)c(=O)n(-c3ccc(OC)cc3)c2n1
11 | -3% | C=CCNC(=O)NC(=O)COC(=O)CCCSc1nc2ccccc2[nH]1
12 | -3% | O=C(Cn1nc(Cc2cccnc2)c2ccccc2c1=O)Nc1cccc(C(F)(F)F)c1
13 | -14% | Cc1cc(C(=O)CN2C(=O)NC3(CCCc4sccc43)C2=O)c(C)n1-c1ccccc1 (configuration not stated)
14 | 3% | COCC(=O)N1CCN(c2nc3ccccc3o2)CC1
15 | -5% | N#Cc1ccc(NC(=O)c2cc(-c3cccs3)on2)cc1
16 | -15% | CCOC(=O)c1ccc(N2C(=O)c3[nH]nc(-c4ccc(OC)cc4)c3C2c2cccc(O)c2)cc1 (configuration not stated)
17 | 12% | CCn1ccc2c(OCC(=O)Nc3ccc(C(C)=O)cc3)cccc2c1=O
18 | -19% | NNC(=O)c1cc(-c2ccc(O)cc2)nc2ccc(Br)cc12
19 | -2% | Cc1ccc(C(=O)COC(=O)c2cc(=O)[nH]c3ccccc23)cc1C
20 | -10% | COc1ccc(OCC(O)CNC(=O)c2ccccc2)cc1 (configuration not stated)

(list continues)
# | VDR inh | mol
21 | 0% | COc1ccccc1C(=O)NCCC(=O)NCc1cccnc1
22 | 0% | COc1cccc(C2=C(C(C)=O)Sc3nncn3N2C(C)=O)c1
23 | -5% | CN(C(=O)c1ccc(NC(=O)Cc2ccc(NC(=O)C3CCCN(C(=O)CCc4ccccc4)C3)cc2)cc1)C1CCCC1 (configuration not stated)
24 | -1%&-17% | COc1nc(-c2ccc(C)cc2)ccc1-c1noc(-c2cccnc2)n1
25 | -9% | CC(=O)Nc1ccc(Nc2ncnc3c2cnn3-c2ccc(C)cc2C)cc1
26 | -3% | C=CCn1c(NC)cc(=O)n(C)c1=O
27 | -9% | O=C(NC1CCCC1)C(c1ccccc1F)N(C(=O)c1ccco1)C1CCCC1 (configuration not stated)
28 | 13% | COC(=O)c1ccc(NC(=O)CSc2nnc(C(C)NC(=O)c3ccccc3Cl)n2C)cc1 (configuration not stated)
29 | -11% | COc1ccc2cc(-c3nc(Cl)c4c5c(sc4n3)CC(C)CC5)c(=O)oc2c1 (configuration not stated)
30 | -4% | O=C(Nc1ccccc1[N+](=O)[O-])c1cc(S(=O)(=O)Nc2ccccn2)ccc1Cl
31 | -10% | CNC(=O)N(C1=NCCCCC1)c1ccc(Br)cc1
32 | 19% | Cc1ccc2nc3c(c(N)c2c1)CCN3C
33 | -10% | COc1ccc(NC(=O)CSc2nnc(Cc3ccccc3)c(=O)n2N)cc1OC
34 | 0% | O=C(O)c1ccccc1C(=O)NC1CCN(c2nccc(C(F)(F)F)n2)CC1
35 | 0% | Cc1cc(C)c(S(=O)(=O)NCc2ccc3c(c2)CCN3C(=O)c2ccccc2)c(C)c1
36 | -11% | N#CCCN(C(=O)COc1ccc(Br)cc1F)c1ccc(F)cc1
37 | -14% | CCc1ccccc1NC(=O)C(CCSC)NS(=O)(=O)c1ccc2c(c1)oc(=O)n2C (configuration not stated)
38 | 7% | COc1ccccc1C(=O)NCC(=O)N1CCN(C/C=C/c2ccccc2)CC1
39 | 9% | COc1cccc(OC)c1C(=O)Nc1ccc(N2CCCCC2)cc1
40 | 1% | O=C(COc1coc(CN2CCc3ccccc32)cc1=O)Nc1ccc([N+](=O)[O-])cc1

Carrying on.
# | VDR inh | mol
41 | 2% | O=C(c1cn(Cc2ccccc2)nc1-c1cccnc1)N1CCc2ccccc2C1
42 | ? | CCN1CC=C2C(C#N)=C(N)C(C#N)(C#N)[C@H](c3ccoc3)[C@H]2C1
43 | -2% | O=C(NCCc1nc2ccccc2n1CCOc1ccc2ccccc2c1)C1CCCCC1
44 | -5% | Clc1ccc(SCc2cc(Cl)nc(-c3ccccc3)n2)cc1
45 | 20% | O=C(CSc1n[nH]c(-c2ccccc2Cl)n1)N1CCN(c2ccccc2F)CC1
46 | -17% | COC(=O)c1sc(-c2ccc(Cl)cc2)cc1NC(=O)CSCC(=O)O
47 | -3% | O=C(c1ccccc1Cl)N1N=C(c2ccc(Br)cc2)CC1c1nc2ccccc2[nH]1 (configuration not stated)
48 | 6% | COC(=O)c1c2c(nc3ccccc13)CCC2
49 | -3% | O=C(c1ccc(Cl)c(S(=O)(=O)N2CCCC2)c1)N1CCN(c2ccc(F)cc2)CC1
50 | 2% | NC(=O)c1ccc(NC(=O)COC(=O)c2cc(S(=O)(=O)N3CCOCC3)ccc2N2CCCCC2)cc1
51 | ? | CCCNC(=O)NNC(=O)c1ccc(F)cc1
52 | -1% | CC(=O)Nc1ccc(CN2CCCCCCC2)cc1
53 | -11% | Cc1ccc(NS(=O)(=O)c2cccc(C(=O)NCC(c3cccs3)N3CCOCC3)c2)cc1 (configuration not stated)
54 | 2% | O=S(=O)(c1ccc(Oc2ccc(S(=O)(=O)N3CCOCC3)cc2)cc1)N1CCOCC1
55 | 5% | NC(=O)c1ccsc1NC(=O)CSc1nc2ccccc2c(=O)n1CCCO
56 | 2% | Cc1cc(C(F)(F)F)c(C#N)c(SCC(=O)NC(C)(C)C)n1
57 | -8% | Cn1ncc(C(=O)Nc2ccc(OC(F)(F)F)cc2)c1-n1cccc1
58 | -1% | O=c1cc(-c2cccc(F)c2)[nH]c2ccc(Cl)cc12
59 | -19% | CCOC(=O)C1=C(C)NC(C)=C(C(=O)OCC)C1C(=O)OCC(=O)N(CC)C1CCS(=O)(=O)C1 (configuration not stated)
60 | 8% | O=C(Nc1cc(C(F)(F)F)ccc1Cl)c1nc2ccccc2nc1N1CCCCC1

Other entries follow:
# | VDR inh | mol
61 | 12% | Nc1nc2ncc(-c3ccsc3)c(N)n2n1
62 | 17% | COc1cccc(/C=N/NC(=O)C(=O)N2CCCCCC2)c1O
63 | -10% | COc1cccc(CN2CCNC(=O)C2CC(=O)N2CCCCO2)c1OC (configuration not stated)
64 | 6% | Cc1ccc(NC(=O)c2ccc(F)cc2)cc1S(=O)(=O)N1CCCCCC1
65 | 4% | Fc1ccc2[nH]c3c(N4CCN(c5ccccc5)CC4)ncnc3c2c1
66 | -14% | CC(=O)N1CCN(CC(=O)Nc2ccccc2Sc2ccc(Cl)cc2)CC1
67 | 14% | O=C(NCc1cccs1)C1CCCN(c2nc3ccccc3o2)C1 (configuration not stated)
68 | 0% | CC1Cc2ccccc2N1C(=O)COC(=O)c1ccc(N(C)C)cc1 (configuration not stated)
69 | -5% | CCC1Oc2ccc(C)cc2N(CC(=O)NCCC2=CCCCC2)C1=O (configuration not stated)
70 | -6% | C=CCNc1nc(-c2ccccn2)nnc1-c1ccccc1
71 | -6% | COc1cc(CC(=O)OCC(=O)Nc2ccc(N3CCOCC3)cc2)cc(OC)c1OC
72 | -4% | O=C(Nc1ccc(N2CCN(C(=O)c3ccc(Cl)cc3)CC2)cc1)c1cccs1
73 | -6% | CC1(C)CCC2(C(=O)O)CC[C@]3(C)C(=CCC4[C@]5(C)CCC(O)C(C)(C)C5C(O)C[C@]43C)C2C1 (some centres not stated)
74 | -1% | Cc1nc(NC(=O)COC(=O)CCc2nc3ccccc3s2)c(Cl)cc1Cl
75 | -3% | CCCn1c(SCC(=O)NCCCN2CCCC2=O)nc2ccccc2c1=O
76 | -8% | Cc1nc(S(=O)(=O)N2CCOCC2)c(C#N)c(C)c1Cl
77 | -6% | CC1(C)CC(=O)C=C(Nc2ccccc2O)C1
78 | 2% | O=[N+]([O-])c1ccc(S(=O)(=O)N2CCN(Cc3c[nH]c4ccccc34)CC2)cc1
79 | -1% | O=C(NNc1ccc(-c2csnn2)cc1)c1ccccc1C(F)(F)F
80 | ? | CC(=NNC(=S)N1CCN(c2ccccn2)CC1)c1ccccn1

An excerpt from the list above:
# | VDR inh | mol
67 | 14% | O=C(NCc1cccs1)C1CCCN(c2nc3ccccc3o2)C1 (configuration not stated)
68 | 0% | CC1Cc2ccccc2N1C(=O)COC(=O)c1ccc(N(C)C)cc1 (configuration not stated)
69 | -5% | CCC1Oc2ccc(C)cc2N(CC(=O)NCCC2=CCCCC2)C1=O (configuration not stated)
70 | -6% | C=CCNc1nc(-c2ccccn2)nnc1-c1ccccc1
71 | -6% | COc1cc(CC(=O)OCC(=O)Nc2ccc(N3CCOCC3)cc2)cc(OC)c1OC
72 | -4% | O=C(Nc1ccc(N2CCN(C(=O)c3ccc(Cl)cc3)CC2)cc1)c1cccs1
73 | -6% | CC1(C)CCC2(C(=O)O)CC[C@]3(C)C(=CCC4[C@]5(C)CCC(O)C(C)(C)C5C(O)C[C@]43C)C2C1 (some centres not stated)

Further structures follow:
# | VDR inh | mol
81 | -16% | CC(C)(C)OC(=O)C[C@@H]1C/C=C\C[C@H](CC(=O)NCCO)C(=O)N2CCC[C@@H]2COC1=O
82 | 3% | COc1cc(/C=N/N(CCO)C2=NS(=O)(=O)c3ccccc32)cc(OC)c1OC
83 | 19% | O=C(c1cccs1)n1nc(-c2ccco2)nc1SCc1ccccc1
84 | -23% | C=CCn1c(SCC(=O)NNC(=O)Nc2cccc(Cl)c2)nnc1-c1ccccc1
85 | -2% | CC(CN1CCC(O)CC1)c1ccccc1 (configuration not stated)
86 | 7% | CCCCCOC(=O)Cn1c(N2CCOCC2)nc2c1c(=O)[nH]c(=O)n2C
87 | -5% | COCC(=O)Nc1nc(-c2ccccc2)ns1
88 | 7% | CCOC(=O)C1CCCN(S(=O)(=O)c2ccc3c(c2)N(C(C)=O)CCO3)C1 (configuration not stated)
89 | -13% | COc1cccc(NC(=O)NC2CCCc3ccccc32)c1 (configuration not stated)
90 | 3% | CCOC(=O)c1ccccc1NC(=O)CSc1nc(=O)[nH]c2c1CCCC2
91 | -9% | O=C(NC1CC1)c1cccc(S(=O)(=O)Nc2ccccc2F)c1
92 | -6% | CCn1c(CSc2nnc(-c3ccoc3C)n2C)nc2cc(S(=O)(=O)N(C)C)ccc21
93 | 2% | O=C(CCC(=O)N1CC2CCCN2c2ccccc21)NCc1ccc(Cl)cc1 (configuration not stated)
94 | -16% | C/C(=N\NC(=O)c1nn(C)cc1Cl)c1ccncc1
95 | 3% | O=C(CNS(=O)(=O)c1cccc(Cl)c1)OCc1csc(-c2ccccc2)n1
96 | -10% | O=C(NCc1cccnc1)NC1CCCN1S(=O)(=O)c1ccc(Cl)cc1 (configuration not stated)
97 | 5% | CCOC(=O)CN(C(=O)CSc1nnc(C)n1-c1ccccc1)c1cccc([N+](=O)[O-])c1
98 | -11% | COc1ccccc1/C=N/N1CCN(Cc2ccccc2Cl)CC1
99 | -14% | Fc1ccccc1N1CCN(C2CCCN(Cc3cccc(C(F)(F)F)c3)C2)CC1 (configuration not stated)
100 | 1%&-9% | CC(=O)OCC(=O)[C@@]1(O)CC[C@H]2[C@@H]3CCC4=CC(=O)CC[C@]4(C)[C@H]3C(=O)C[C@@]21C

4 entries out of the list above, ordered by their value in VDR inh, lowest first:
nr | Molecule | VDR inh
81 | CC(C)(C)OC(=O)C[C@@H]1C/C=C\C[C@H](CC(=O)NCCO)C(=O)N2CCC[C@@H]2COC1=O | -16%
96 | O=C(NCc1cccnc1)NC1CCCN1S(=O)(=O)c1ccc(Cl)cc1 (configuration not stated) | -10%
93 | O=C(CCC(=O)N1CC2CCCN2c2ccccc21)NCc1ccc(Cl)cc1 (configuration not stated) | 2%
97 | CCOC(=O)CN(C(=O)CSc1nnc(C)n1-c1ccccc1)c1cccc([N+](=O)[O-])c1 | 5%
